26S disassembly: inhibitors of ATP-driven 26S proteasome dissociation, primary screen, biochemical, bead-based flow cytometry, GFP-tagged proteasome; anti-FLAG beads, GFP-proteasome disassembly; inhibition of disassembly, % (no concentration beside the values); hit rate 0.2% among 24,000; AID 751, 2007;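 active = above 40%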;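 note: plate controls were ATP control with full disassembly for no effect and ATP-gamma-S intact proteasomes for full effect; higher percent means more bead fluorescence retained so stronger block of disassembly; stock transfer was 100 nL into about 10 µL; wells with too few beads may also be inconclusive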
VCAM-1 rise: enhancers of VCAM-1 display on endothelial cells, cell-based, plate reader, pooled HUVEC, TNFa stimulus (AID 455); HUVEC TNFa-induced VCAM-1 immunofluorescence, plate reader; numbers were filed only for top-ranked candidate wells; augmentation, % at 5 µM; hit rate 0.2% among 10,000;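 active = a compound raising TNF-alpha-driven VCAM-1 surface staining, with its hit status upheld on visual or statistical review; inactive = the rest, including hits rejected on review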;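 note: 0% = TNFa with vehicle and 100% = strongest image-checked hit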
Starred values were filed as active, the others as inactive; i = inactive; / = no result given. This is a subset. The share of hits here may be higher or lower than overall.

SMILES	26S disassembly	VCAM-1 rise
COc1ccc(NC(=O)CN2CCN(S(=O)(=O)c3ccc(Cl)cc3)CC2)cc1	0.0	i
COc1ccc(OC)c(-c2cc(C(=O)N3CCN(c4ncccn4)CC3)c3ccccc3n2)c1	-0.8	/
CCc1ccc(C2CC(c3ccc(C)cc3)Nc3nc(N)nn32)cc1 (stereo unspecified)	0.3	/
CCOC(=O)c1c(C)c(C(=O)NCCN2CCOCC2)c(C)n1CC	0.2	/
Cc1ccc(Cl)cc1NC(=O)Cn1cc2c(n1)CCCC2	1.2	/
Cc1ccc(Cl)cc1-n1c(=O)cc(N2CCN(C(=O)c3ccco3)CC2)[nH]c1=O	4.8	/
Cc1sc2c(c1C)C(=O)NC(c1cccc(O)c1)N2 (stereo unspecified)	0.0	/
CSCCC(NC(=O)C1CCC(C)CC1)C(=O)O (stereo unspecified)	0.0	/
COc1cccc(C2C3=C(CCCC3=O)Nc3nc4ccccc4n32)c1OC (stereo unspecified)	0.0	/
O=c1[nH]nnc2c1sc1nc(N3CCOCC3)c3c(c12)CCCC3	-3.8	/
Cc1cc(C(F)F)n2nc(C(=O)Nc3ccc(S(=O)(=O)N4CCCCCC4)cc3)nc2n1	-1.0	i
COC(=O)c1cn[nH]c1N	0.3	/
Cc1cc(C)c2ccc(N)nc2c1O	-4.1	i
O=C(NCC1CCCO1)c1nn2c(c1Cl)NC(c1ccc(F)cc1)CC2C(F)(F)F (stereo unspecified)	-0.3	/
Cc1ccc(NS(=O)(=O)c2cccc(C(=O)Nc3cc(C)on3)c2)cc1	1.1	/
COC(=O)c1ccc(NC(=O)CN2CCN(c3ccc(Cl)cc3)CC2)cc1	-1.0	i
NC(=O)c1c(NC(=O)CSc2nnc(-c3ccco3)n2-c2ccccc2)sc2c1CCC2	0.6	i
O=C(Cn1cccc1)N1CCN(c2ccc(F)cc2)CC1	0.4	/
Cc1nn(-c2ccc(F)cc2)c(C)c1NS(=O)(=O)c1ccc(Cl)cc1	0.8	i
O=C(c1ccc2c(c1)OCO2)N(c1ccc(Cl)cc1)C1C=CS(=O)(=O)C1 (stereo unspecified)	2.1	/
C=CCn1c(SCCCC)nc(O)cc1=O	0.9	/
COC(=O)c1cc2occc2n1CC(=O)Nc1cc(OC)cc(OC)c1	0.8	/
O=C(Nc1ccc(Cl)c(C(F)(F)F)c1)N1CCCC(O)C1 (stereo unspecified)	0.0	i
CCN1CCN(c2cc(C)c3cc(NC(=O)c4ccncc4)ccc3n2)CC1	0.6	/
CCOC(=O)C1CCCN(c2ncnc3c2cnn3-c2ccc(OC)cc2)C1 (stereo unspecified)	0.9	/
N#Cc1nc(COc2ccccc2)oc1NCCN1CCOCC1	-1.9	i
CCOCCCNC(=O)CS(=O)(=O)Cc1nc(-c2cccc(OC)c2)oc1C	2.4	i
Cc1cc(Nc2ccc(C)c(C)c2)n2nc(C)nc2n1	-0.4	/
Oc1ccc(N2CCN(C(c3cccnc3)c3nnnn3Cc3ccccc3)CC2)cc1 (stereo unspecified)	-1.7	i
COc1c2ccoc2nc2c(OC)c(OCC(O)C(C)(C)O)ccc12 (stereo unspecified)	-3.2	i

In another format: results already given.
| SMILES | 26S disassembly | VCAM-1 rise |
| --- | --- | --- |
| NC(=O)c1c(NC(=O)CSc2nnc(-c3ccco3)n2-c2ccccc2)sc2c1CCC2 | 0.6 | i |
| O=C(Cn1cccc1)N1CCN(c2ccc(F)cc2)CC1 | 0.4 | / |
| Cc1nn(-c2ccc(F)cc2)c(C)c1NS(=O)(=O)c1ccc(Cl)cc1 | 0.8 | i |
| O=C(c1ccc2c(c1)OCO2)N(c1ccc(Cl)cc1)C1C=CS(=O)(=O)C1 (stereo unspecified) | 2.1 | / |
| C=CCn1c(SCCCC)nc(O)cc1=O | 0.9 | / |
| COC(=O)c1cc2occc2n1CC(=O)Nc1cc(OC)cc(OC)c1 | 0.8 | / |
| O=C(Nc1ccc(Cl)c(C(F)(F)F)c1)N1CCCC(O)C1 (stereo unspecified) | 0.0 | i |

Continuation:
SMILES	26S disassembly	VCAM-1 rise
CC(=O)N1CCc2cc(S(=O)(=O)NCCCN3CCN(Cc4ccccc4)CC3)ccc21	-0.5	/
O=C(CN1C(=O)c2ccccc2S1(=O)=O)NC1CC2CCC1C2 (stereo unspecified)	-1.8	/
COc1ccc(S(=O)(=O)Nc2ccc3c(c2)COC3=O)cc1OC	-0.6	/
COc1nc(OC)nc(N2CCC(C(=O)NCc3cccs3)CC2)n1	-1.6	i
CC(=O)c1sc(Nc2nc3ccc(F)cc3s2)nc1C	3.0	/
CCOC(=O)c1cc2c(=O)n3cccc(C)c3nc2n(CC2CCCO2)c1=NC(C)=O (stereo unspecified)	5.7	i
CCOC(=O)N1CCN(c2c(N3CCc4ccccc43)c(=O)c2=O)CC1	0.8	/
Cc1cc(C)cc(N(CC(=O)N2CCN(Cc3ccccc3)CC2)S(=O)(=O)c2c(C)noc2C)c1	1.6	/
CC(C)c1cc(C(=O)Nc2sc3c(c2C#N)CCC3)no1	-0.2	/
CCn1cc(C(=O)N2CCCC2)c(=O)c2cc(S(=O)(=O)N3CCOCC3)ccc21	-0.9	i
COc1cc2c(=O)n(Cc3ccccc3)c(=O)n(CC(=O)NCc3ccco3)c2cc1OC	0.8	i
Cc1sc2ncn(CC(=O)NCCCC(=O)N3CCN(c4ccccn4)CC3)c(=O)c2c1C	-0.6	/
CCOC(=O)c1nnsc1NC(C)=O	0.5	/
Cc1ccc2oc(=O)c3cc(C(=O)NCCN4CCN(C)CC4)sc3c2c1	-1.1	/
CC(C)c1nnc(NC(=O)CCCC(=O)O)s1	0.6	/
CCN1CCN(S(=O)(=O)c2ccc(S(=O)(=O)N(CC)Cc3ccccc3)cc2)CC1	-0.3	i
Cc1cccc(NC(=O)c2cc(NC(=O)c3ccco3)ccc2Cl)n1	0.2	i
Cc1ccc(N(C(=O)c2cccs2)C2C=CS(=O)(=O)C2)cc1 (stereo unspecified)	-1.1	/
COc1ccc(N(CC(=O)Nc2cc(Cl)ccc2OC)S(=O)(=O)c2c(C)noc2C)cc1	0.0	/
CC1CCN(c2nc(-c3ccc(F)cc3)cc(C(F)(F)F)n2)CC1	0.2	/
O=c1c2cccnc2[nH]c(=S)n1CCCN1CCN(c2ccccc2F)CC1	0.4	/
O=c1[nH]c2ccc(S(=O)(=O)NCc3ccccn3)cc2s1	1.2	/
O=C(NCc1ccc(F)cc1)C1C2C=CC3(CN(Cc4cccnc4)C(=O)C13)O2 (stereo unspecified)	-3.1	/
CCOc1cc(-c2nc(-c3ccc(C)nc3OCC)no2)cc(OCC)c1OCC	0.5	i
N#CCOc1nc(N2CCOCC2)nc(N2CCOCC2)n1	-0.9	i
CC1(C)CC(=O)C2=C(C1)N(c1ccccc1C#N)C(N)=C(C#N)C2c1cccs1 (stereo unspecified)	0.6	/
CCCc1cc(C(=O)Nc2cccnc2)no1	-1.7	/
FC(F)(F)c1cccc(N2CCN(Cc3cccnc3)CC2)c1	1.9	i
COc1ccc(C(CC(=O)O)NC(=O)C2CCCCC2)cc1 (stereo unspecified)	-0.4	/
CC(=O)c1cc(Cl)ccc1OC(=O)c1ccco1	0.2	i
COc1ccc(C(=O)NCCn2cc(SCC(=O)N3CCOCC3)c3ccccc32)cc1	0.6	/
Cc1[nH]c(=O)[nH]c(=O)c1S(=O)(=O)NCC12CC3CC(CC(C3)C1)C2	0.0	/
COc1cccc(-c2cc(C(=O)N3CCCCC3C)no2)c1 (stereo unspecified)	0.9	/
COc1ccc(N(CC(=O)N2CCc3ccccc32)S(=O)(=O)c2c(C)n[nH]c2C)cc1	2.6	/
Cc1cccc(N(C)C(=O)CCS(=O)(=O)c2cccc3nonc23)c1	-0.3	/
Cn1c(=O)c2c(SCc3cccc(C(F)(F)F)c3)nc(-c3ccco3)nc2n(C)c1=O	-1.4	/
COc1ccc(Cc2nnc(Nc3ccc(C)cc3C)[nH]c2=O)cc1	-0.6	/
CCOc1ccc(-n2c(Cc3cc(=O)[nH]c(=O)[nH]3)nnc2SCC)cc1	1.5	/
CCCCN(CCCC)S(=O)(=O)c1ccc(OC)c2ncccc12	-1.9	/
O=C1CC(c2ccccc2)n2nc(NC(=O)c3ccccn3)nc2N1 (stereo unspecified)	-2.7	22
Cc1c(NC(=O)C2(c3ccccc3)CCOCC2)c(=O)n(-c2ccccc2)n1C	-0.2	i
Nc1ccccc1NC(=O)c1ccccc1N	-2.8	/
O=C(CSc1nnc(-c2ccccc2)o1)N1CCc2ccccc2C1	-2.2	i
COc1ccc(N2CCN(C(=O)c3cc4c(-c5cccc(OC)c5)nn(C)c4s3)CC2)cc1	1.4	/
CCOC(=O)N1CCN(C(=O)CSCC(=O)Nc2nc(-c3cccs3)cs2)CC1	0.5	/
CN(CCNC(=O)CCNC(=O)Cn1ccc2ccccc2c1=O)Cc1ccccc1	-1.9	/
O=C(CN1C(=O)CC(c2ccco2)Sc2ccccc21)NCC1CCCO1 (stereo unspecified)	1.9	/
CCOC(=O)C(C)n1ncn2cccc2c1=O (stereo unspecified)	-0.6	/
CCCc1nnc(SCC(=O)N2CCOCC2)n1Cc1ccco1	1.9	i
COCCNS(=O)(=O)c1ccc(-c2ccc(S(=O)(=O)NCCOC)cc2)cc1	1.2	/
The listing continues:
SMILES	26S disassembly	VCAM-1 rise
O=c1cc(N2CCN(c3cccc(Cl)c3)CC2)[nH]c(=O)n1C1CCCCC1	11	/
Cc1cc2nc(-c3ccco3)cc(C(F)(F)F)n2n1	-0.7	i
CCOC(=O)C1CCCN(C(=O)CNS(=O)(=O)c2ccc(Br)s2)C1 (stereo unspecified)	-0.7	i
COCCn1c(=S)[nH]c2cc(C(=O)N3CCN(c4ccccc4OC)CC3)ccc2c1=O	-2.7	/
COc1ccccc1S(=O)(=O)Cc1ccc(C(=O)N2CCN(c3ccc(C)cc3)C(C)C2)o1 (stereo unspecified)	1.1	i
CCOC(=O)N1CCN(c2c(NCCc3ccc(OCC)c(OCC)c3)c(=O)c2=O)CC1	-0.9	/
COCCn1c(SCC(=O)c2ccccc2)nc2c(c1=O)SC(C)C2 (stereo unspecified)	1.0	i
COc1ccccc1Nc1nc2ccccc2[nH]1	-0.7	i
O=C(CN1C(=O)CCS(=O)(=O)c2ccccc21)NCc1ccccc1	0.2	/
CCOC(=O)N1CCN(C(=O)c2ccc3c(=O)n(Cc4ccc(Cl)cc4)c(=S)[nH]c3c2)CC1	-1.9	/
CCC(=O)N1CCc2cc(S(=O)(=O)CCC(=O)NCc3cccs3)ccc21	0.0	/
Cc1ccc(C)c(OCC(O)CN2C(C)CCCC2C)c1 (stereo unspecified)	0.9	i
CCOc1ccc(NC(=O)c2oc3ccccc3c2NC(=O)C2CC2)cc1	1.8	/
Oc1cccc(C=NCc2ccccc2)c1O	0.3	62*
CCSc1nnc(-c2cccs2)o1	-1.0	i
Cc1cccc2nc(Cn3c(=O)n(CCC(=O)NCc4ccco4)c(=O)c4ccccc43)cc(=O)n12	-2.3	/
Nc1nc(C(=O)N2CCOCC2)nn1S(=O)(=O)c1ccc(Cl)cc1	0.5	i
O=C(CCCNS(=O)(=O)c1cccs1)N1CCc2ccccc2C1	2.7	/
Cc1cccc2cc(CN(CC3CCCO3)C(=O)c3cnccn3)c(=O)[nH]c12 (stereo unspecified)	-3.1	i
CCOc1ccc(NC(=O)CSc2nnc(COc3c(C)cccc3C)o2)cc1	0.4	i

The list goes on, overlapping the part above by 2 compounds.
SMILES	26S disassembly	VCAM-1 rise
Cc1cccc2cc(CN(CC3CCCO3)C(=O)c3cnccn3)c(=O)[nH]c12 (stereo unspecified)	-3.1	i
CCOc1ccc(NC(=O)CSc2nnc(COc3c(C)cccc3C)o2)cc1	0.4	i
CCN(CC)S(=O)(=O)c1cccc(-c2nnc(SCCOc3ccccc3C)o2)c1	0.3	i
CCC(C(=O)OCCN(CC)CC)c1ccccc1 (stereo unspecified)	-0.3	i
Cc1cccc(CN2CCN(CC(=O)O)C2=O)c1	-1.9	/
Cc1nc2ccc(S(=O)(=O)NCC(=O)N3CCC(C)CC3)cc2s1	-0.8	/
COc1cccc(CNC(=O)C2CCCN(S(C)(=O)=O)C2)c1 (stereo unspecified)	0.1	/
CC1=C(C(=O)Nc2ccccn2)C(c2ccc(Br)cc2)n2ncnc2N1 (stereo unspecified)	-1.2	/
Cn1nnnc1SCC(=O)Nc1ccccc1-c1ccccc1	-2.3	i
CCOc1cc(C#N)c(NC(=O)c2ccnn2C)cc1OCC	0.3	/
CCOC(=O)c1cnc(C(C)(C)C)[nH]c1=O	-3.9	i
c1ccc(-c2nnc(SCc3nc4ccccc4[nH]3)o2)cc1	-6.3	i
CCCCSCCCNC(=O)Nc1cccc(OC)c1	-0.2	/
CC(CC(=O)O)CC1=NS(=O)(=O)c2ccccc2N1 (stereo unspecified)	1.1	/
O=C(CC1Oc2ccccc2NC1=O)NCCCN1CCN(C2CCCCC2)CC1 (stereo unspecified)	-1.1	/
CC(=O)N1CCc2cc(S(=O)(=O)CCC(=O)Nc3cccc(F)c3)ccc21	0.1	i
CCOC(=O)CC(NC(=O)c1ccco1)c1ccccc1Cl (stereo unspecified)	0.2	/
CSc1c(C#N)c(N)c(C#N)c2c1COC(C)(C)C2	-0.2	i
COc1cc(NC(=O)CN(c2cc(C)cc(C)c2)S(=O)(=O)c2c(C)noc2C)cc(OC)c1	-1.0	i
CCOC(=O)CN1CC23C=CC(O2)C(C(=O)Nc2ccc(C(C)=O)cc2)C3C1=O (stereo unspecified)	0.4	i
COC(=O)[C@@H](NC(=O)NCc1ccccc1Cl)C(C)C	2.1	i
COc1ccc(C)cc1S(=O)(=O)N1CCN(Cc2ccccc2)CC1	1.0	i
